Source: PubChem BioAssay (several laboratories)
ALR H2O2 inh = human ALR oxidase inhibition via reduced H2O2. purified ALR, DTT oxidation, H2O2 HRP-luminol luminescence. inhibition, % (no concentration beside the values). hit rate 3.8% among 290,000. AID 485317;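 active = mean and each replicate at 75% or more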;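 also: stock transfer was 7.5 nL into about 7.5 µL; 0% = neutral wells and 100% = wells with inactivated enzyme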
Target sequence (P55789 whole entry, looked up): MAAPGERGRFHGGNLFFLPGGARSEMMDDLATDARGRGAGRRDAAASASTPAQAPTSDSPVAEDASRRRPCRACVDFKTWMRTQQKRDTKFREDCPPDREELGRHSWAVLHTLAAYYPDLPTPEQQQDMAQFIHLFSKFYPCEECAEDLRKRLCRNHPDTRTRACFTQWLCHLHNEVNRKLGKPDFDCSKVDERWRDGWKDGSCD
Ecoli growth = blocks Escherichia coli growth; OD600 absorbance (concentration not given with the values); hit rate 0.21% among 330,000; OD600, 23 h; hits give low values;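 active = OD600 absorbance below the run mean of sample wells minus 3.6 SD, in any replicate, cut at about 0.56 in these data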;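 also: stock transfer was 300 nL into about 60 µL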
UCH37 inh = blocks the human deubiquitinase UCH37 | Q9Y5K5 | purified proteasome/UCH37, Ub-AMC cleavage fluorescence | inhibition, % (no concentration beside the values) | hit rate 0.33% among 330,000;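 active = mean of two replicates above 20%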;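 also: 0% = compound-free wells with enzyme and 100% = wells lacking proteasome; stock transfer was 100 nL into about 20 µL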
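Schedule: 30 min plus 25 min, room temperature / Material: human UCH37 within purified proteasomes / Technique: AMC fluorescence intensity at 355/460 nm / Buffer or medium: pH 7.4 Tris-HCl (50 mM) with ovalbumin, ATP-MgCl2, DTT / Controls: wells without proteasome as full block, compound-free enzyme plus substrate as uninhibited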
HNF4A DNA FP = change in binding of human HNF4 alpha to DNA | P41235 | HNF4a-FITC DNA binding, fluorescence polarization, 1 h | activity change, % at 10 µM | hit rate 0.3% among 360,000; in the data active = activity change above about 30%, passing the limit was not always enough;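 also: controls were the assay level and a saturating level of protein; the project sought stronger binding though the title names inhibitors; some compounds called inactive have numbers as strong as hits; positive values seem to mean higher polarization but the record does not say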
Target sequence (P41235 whole entry, looked up): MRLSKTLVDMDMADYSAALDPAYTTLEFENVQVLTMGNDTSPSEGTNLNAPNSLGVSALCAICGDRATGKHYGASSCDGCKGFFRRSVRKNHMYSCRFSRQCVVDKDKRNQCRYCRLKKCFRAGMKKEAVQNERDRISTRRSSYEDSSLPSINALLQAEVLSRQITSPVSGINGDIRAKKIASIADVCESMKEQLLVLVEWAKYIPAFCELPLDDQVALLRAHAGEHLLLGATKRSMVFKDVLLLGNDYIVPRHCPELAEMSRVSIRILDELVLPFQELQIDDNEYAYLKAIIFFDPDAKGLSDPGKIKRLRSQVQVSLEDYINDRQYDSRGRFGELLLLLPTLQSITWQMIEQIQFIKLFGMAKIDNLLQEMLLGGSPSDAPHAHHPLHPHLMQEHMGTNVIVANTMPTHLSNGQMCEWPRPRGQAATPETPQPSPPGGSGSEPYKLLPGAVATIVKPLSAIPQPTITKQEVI
FGF22 binding = FGF22 (human) thermal shift binding. recombinant FGF22 thermal shift, SYPRO orange fluorescence; percent of sucrose octasulfate shift, DMSO zero. calls only at 9.99 µM. hit rate 1.5% among 340,000. AID 651658;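 active = melting point raised past a set limit in the mean and every replicate; three in four hits are not shown here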
B2AR ag = agonists of human beta-2 adrenergic receptor inducing internalization. P07550. Am2.2-beta2AR cells, FAP receptor internalization, flow cytometry; reference of the scale not given here. response, % (no concentration beside the values). hit rate 0.43% among 340,000. AID 504454;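 active = response above a set limit, near 3 SD of response in nonfluorescent compounds, cut at about 42% in these data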;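 also: stock transfer was 100 nL into about 11 µL; a reference agonist was the positive control; negative values mostly stem from fluorescent compounds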
Target sequence (P07550 whole entry, looked up): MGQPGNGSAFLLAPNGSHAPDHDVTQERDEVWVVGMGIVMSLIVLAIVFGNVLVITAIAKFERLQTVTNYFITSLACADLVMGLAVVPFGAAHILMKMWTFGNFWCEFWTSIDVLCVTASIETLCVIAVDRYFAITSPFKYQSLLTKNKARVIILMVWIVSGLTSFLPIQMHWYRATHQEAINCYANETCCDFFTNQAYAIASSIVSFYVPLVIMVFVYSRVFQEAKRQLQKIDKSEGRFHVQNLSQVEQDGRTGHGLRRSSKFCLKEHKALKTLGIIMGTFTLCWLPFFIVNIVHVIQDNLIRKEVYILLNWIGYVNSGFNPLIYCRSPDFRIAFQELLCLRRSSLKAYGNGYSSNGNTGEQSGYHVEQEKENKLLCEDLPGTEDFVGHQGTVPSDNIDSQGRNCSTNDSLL
LANA-H2A inh = blocks KSHV LANA binding to histone H2A/H2B | Q9QR71 | cell-free LANA-H2A/H2B peptide, fluorescence polarization | inhibition, % (test concentration not listed) | hit rate 0.6% among 320,000; in the data active = inhibition mostly above about 10%, no sharp cut-off; inactive = mostly below about 6.7%;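 also: stock transfer was 7.5 nL into about 10 µL; 0% = median of vehicle wells and 100% = median of positive control wells; one replicate is shown; the record names a cut of 25% in any replicate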
Starred values were filed as active, the others as inactive. An excerpt; count on the stated rates, not on these rows.

`Cc1c(NC(=O)c2cccc(NC(=O)COc3ccccc3C#N)c2)c(=O)n(-c2ccccc2)n1C` gave Ecoli growth 0.64, UCH37 inh 1.2, HNF4A DNA FP -1.4, FGF22 binding inactive and B2AR ag -13.
Screening COc1ccc(COC(=O)N/N=C/c2cccs2)cc1 returned ALR H2O2 inh -6, HNF4A DNA FP 4.4, FGF22 binding inactive, B2AR ag -1 and LANA-H2A inh 2.5.
Screening O=S(=O)(NCC1CN(S(=O)(=O)c2c(F)cccc2F)C1)c1ccc2c(c1)OCCO2 returned ALR H2O2 inh -1, Ecoli growth 0.69, UCH37 inh -1.2, HNF4A DNA FP -0.8, FGF22 binding inactive, B2AR ag 0 and LANA-H2A inh 4.3.
COc1ccc(NCCC(O)c2ccc(Cl)cc2)cc1 (stereo unspecified) was read as ALR H2O2 inh 99*, Ecoli growth 0.69, UCH37 inh 3.9, HNF4A DNA FP 0.5, FGF22 binding inactive, B2AR ag 0 and LANA-H2A inh -0.7.
`CCN(C(=O)CN1CCN(c2ccc(OC)cc2)CC1)c1c(N)n(Cc2ccccc2)c(=O)[nH]c1=O` gave ALR H2O2 inh 71, Ecoli growth 0.75, UCH37 inh 0.9, HNF4A DNA FP 2.9, B2AR ag 2 and LANA-H2A inh 4.6.
`COc1ccccc1OCCCn1c(=O)oc2ccccc21` gave ALR H2O2 inh -5, Ecoli growth 0.78, UCH37 inh -1.3, HNF4A DNA FP 1.0, B2AR ag 4 and LANA-H2A inh -4.1.
`Cc1c(C(=O)c2no[n+]([O-])c2C(=O)c2cnn(C)c2C)cnn1C` gave ALR H2O2 inh 59, Ecoli growth 0.69, UCH37 inh 2.0, HNF4A DNA FP 4.0, B2AR ag 10 and LANA-H2A inh 12.
For Cc1ccc(-n2nc(C)c(=O)c(-c3ccccc3)c2NC(=O)C(C)C)cc1 the results were ALR H2O2 inh -13, Ecoli growth 0.7, UCH37 inh 5.4, HNF4A DNA FP 1.3, B2AR ag 2 and LANA-H2A inh -3.3.
Screening CC(C)OCC(O)CN1CCN(CCN2C(=O)c3cccc4cccc(c34)C2=O)CC1 (stereo unspecified) returned ALR H2O2 inh 1, Ecoli growth 0.68, UCH37 inh -9.4, HNF4A DNA FP -2.6, FGF22 binding inactive, B2AR ag -14 and LANA-H2A inh -2.5.
CCc1ccc2nc(NC(=O)Cn3cnc4ccccc4c3=O)sc2c1 was read as ALR H2O2 inh -10, Ecoli growth 0.72, UCH37 inh -1.7, HNF4A DNA FP 1.9, FGF22 binding inactive, B2AR ag 0 and LANA-H2A inh -8.3.
`CCN(CC)CCCn1c2c(c(SCC(=O)Nc3cccc4ccccc34)nc1=O)CCC2` gave ALR H2O2 inh 70, Ecoli growth 0.68, UCH37 inh -1.0, HNF4A DNA FP -1.0, FGF22 binding inactive, B2AR ag 3 and LANA-H2A inh 2.1.
For COc1ccc(NC2c3ccccc3C(=O)N2Cc2ccc3c(c2)OCO3)cc1 (stereo unspecified) the results were ALR H2O2 inh 57, Ecoli growth 0.64, UCH37 inh 2.3, HNF4A DNA FP 5.4, FGF22 binding inactive, B2AR ag 2 and LANA-H2A inh -0.7.
Screening CCOC(=O)c1sc2nc(C)nc(NCc3ccccc3OC)c2c1C returned ALR H2O2 inh -1, Ecoli growth 0.68, UCH37 inh -21, HNF4A DNA FP 0.0, FGF22 binding inactive, B2AR ag 9 and LANA-H2A inh -1.7.
`Cc1cc(C)n(CCCNC(=O)CCNS(=O)(=O)c2ccccc2C(F)(F)F)n1` gave ALR H2O2 inh -3, Ecoli growth 0.69, UCH37 inh 1.1, HNF4A DNA FP 1.4, FGF22 binding inactive, B2AR ag 0 and LANA-H2A inh 2.6.
Screening CC(C)NS(=O)(=O)c1ccc(OCC(N)=O)c(Cl)c1 returned ALR H2O2 inh 0, Ecoli growth 0.71, HNF4A DNA FP 1.7, B2AR ag -2 and LANA-H2A inh 5.1.
Screening Cc1cc(C(=O)OCC(=O)N(C)c2c(N)n(Cc3ccccc3)c(=O)[nH]c2=O)c(C)n1-c1ccccc1 returned ALR H2O2 inh 0, Ecoli growth 0.68, UCH37 inh 1.2, HNF4A DNA FP 4.4, FGF22 binding inactive, B2AR ag -3 and LANA-H2A inh -0.8.
For CN(C)C(=O)CSc1nc2ccc(N3C(=O)c4ccccc4C3=O)cc2s1 the results were ALR H2O2 inh -6, Ecoli growth 0.66, UCH37 inh 2.9, HNF4A DNA FP -1.4, FGF22 binding inactive, B2AR ag -3 and LANA-H2A inh -4.6.
COc1cc(-c2nnc(CSc3nnc(Nc4ccc(Oc5ccccc5)cc4)s3)o2)cc(OC)c1OC was read as ALR H2O2 inh -11, Ecoli growth 0.71, UCH37 inh 2.9, HNF4A DNA FP 1.3, FGF22 binding inactive, B2AR ag -8 and LANA-H2A inh 0.5.
S=C(Nc1ccc(Oc2ccccc2)cc1)NC1CCCC1 was read as ALR H2O2 inh 0, Ecoli growth 0.62, UCH37 inh -0.2, HNF4A DNA FP -4.3, FGF22 binding inactive, B2AR ag -12 and LANA-H2A inh 4.3.
For COc1ccc(CC(=O)N(C)Cc2cccc(F)c2)cc1S(=O)(=O)N1CCOCC1 the results were ALR H2O2 inh -3, Ecoli growth 0.67, UCH37 inh -1.6, HNF4A DNA FP 2.8, FGF22 binding inactive, B2AR ag -7 and LANA-H2A inh -0.3.
Screening CCCCC#Cc1cncc(C(=O)N/N=C/c2ccccc2)c1 returned ALR H2O2 inh -4, HNF4A DNA FP -5.8, FGF22 binding inactive, B2AR ag -6 and LANA-H2A inh -0.2.
Screening CC(c1ccncc1)C(C)c1ccncc1 (stereo unspecified) returned Ecoli growth 0.69, UCH37 inh -0.1, HNF4A DNA FP -2.1, FGF22 binding inactive, B2AR ag -1 and LANA-H2A inh -0.7.
`COc1ccc(-c2nnc(SCC(=O)Nc3sc4c(c3C#N)CCC4)n2CC2CCCO2)cc1` (stereo unspecified) gave Ecoli growth 0.76, UCH37 inh 3.8, HNF4A DNA FP 2.1 and B2AR ag -1.
`COn1c(C)c(C(C)=O)c2c3no[n+]([O-])c3ccc21` gave ALR H2O2 inh -3, Ecoli growth 0.77, UCH37 inh 1.7, HNF4A DNA FP 1.7, B2AR ag -3 and LANA-H2A inh 2.2.
Screening CN(C)Cc1c(C(=O)N/N=C/C2CC=CCC2)nnn1-c1nonc1N (stereo unspecified) returned ALR H2O2 inh -12, HNF4A DNA FP 1.2, FGF22 binding inactive, B2AR ag -1 and LANA-H2A inh 0.3.
For CS(=O)(=O)N(CC(=O)NC1CCCC1)Cc1ccc(Cl)cc1 the results were Ecoli growth 0.67, UCH37 inh 0.0, HNF4A DNA FP -1.8 and B2AR ag 0.
Cc1cccc(C)c1NC(=O)C1C2C=CC(C2)C1C(=O)NCc1ccccn1 (stereo unspecified) was read as ALR H2O2 inh 27, Ecoli growth 0.64, UCH37 inh 0.8, HNF4A DNA FP 3.2, FGF22 binding inactive, B2AR ag -2 and LANA-H2A inh 2.7.
`COc1ccc(Br)cc1CNC(=O)CCN1C(=O)COc2ccccc21` gave ALR H2O2 inh -1, Ecoli growth 0.66, UCH37 inh 3.7, HNF4A DNA FP -1.2, FGF22 binding inactive, B2AR ag -4 and LANA-H2A inh -0.7.
`CC(NC(=O)COC(=O)c1ccccc1Nc1ccccc1)c1ccccc1` (stereo unspecified) gave ALR H2O2 inh -3, Ecoli growth 0.72, UCH37 inh -67, HNF4A DNA FP 1.9, B2AR ag -5 and LANA-H2A inh -3.4.
CCOC(=O)C1C(=O)C=C(c2cccc(NS(C)(=O)=O)c2)CC1c1ccco1 (stereo unspecified) was read as Ecoli growth 0.71, UCH37 inh 4.2, HNF4A DNA FP -1.1, B2AR ag 7 and LANA-H2A inh 1.3.
CC1CCC2(CC1)NC(=O)N(CC(=O)Nc1cccc(S(=O)(=O)N3CCOCC3)c1)C2=O (stereo unspecified) was read as ALR H2O2 inh -1, Ecoli growth 0.66, UCH37 inh 0.9, HNF4A DNA FP 1.1, FGF22 binding inactive, B2AR ag -8 and LANA-H2A inh -4.4.
Cc1c(-c2ccccc2)oc2c(C(=O)OCC(=O)Nc3ccc(F)cc3)cccc2c1=O was read as ALR H2O2 inh -12, Ecoli growth 0.7, UCH37 inh 2.1, HNF4A DNA FP 0.8, FGF22 binding inactive, B2AR ag 3 and LANA-H2A inh 2.8.
For COc1ccc2c(c1)[nH]c1c(=O)n(/N=C/c3ccc(OC)c(CN4CCCC4)c3)cnc12 the results were HNF4A DNA FP 0.8, FGF22 binding inactive, B2AR ag 2 and LANA-H2A inh -1.5.
`Cc1cc(=O)oc2cc(Oc3ncccc3[N+](=O)[O-])ccc12` gave ALR H2O2 inh 4, Ecoli growth 0.66, UCH37 inh -9.7, HNF4A DNA FP -1.0, FGF22 binding inactive, B2AR ag 0 and LANA-H2A inh 1.1.
CCCS(=O)(=O)N1CCC(C(=O)NCCC(C)C)CC1 was read as ALR H2O2 inh 1, Ecoli growth 0.68, UCH37 inh 3.1, HNF4A DNA FP -2.7, FGF22 binding inactive, B2AR ag 4 and LANA-H2A inh -4.7.
`COc1ccc(CNC(=O)C2CCC(CNS(=O)(=O)c3cccs3)CC2)cc1` (stereo unspecified) gave ALR H2O2 inh -8, Ecoli growth 0.69, UCH37 inh 3.5, HNF4A DNA FP 1.6, FGF22 binding inactive, B2AR ag 2 and LANA-H2A inh -0.6.
Screening O=C(Nc1nnc(-c2ccccc2Cl)s1)c1ccccc1F returned ALR H2O2 inh -20, Ecoli growth 0.66, UCH37 inh 0.1, HNF4A DNA FP -1.3, FGF22 binding inactive, B2AR ag -5 and LANA-H2A inh 7.2.
O=C(Cc1ccccc1)N/N=C/c1ccc2cccc(O)c2n1 was read as ALR H2O2 inh -20, HNF4A DNA FP -5.6, FGF22 binding inactive, B2AR ag 4 and LANA-H2A inh -2.7.
C[C@H](CO)N1C[C@H](C)[C@@H](CN(C)S(=O)(=O)c2ccccc2)Oc2c(NS(=O)(=O)c3ccccc3)cccc2C1=O was read as UCH37 inh -2.4, HNF4A DNA FP -0.8, FGF22 binding inactive and B2AR ag 6.
Screening c1ccc(CCn2c(SCc3ccccc3)nnc2-c2ccncc2)cc1 returned ALR H2O2 inh -8, Ecoli growth 0.71, UCH37 inh -0.7, HNF4A DNA FP -3.2, B2AR ag 8 and LANA-H2A inh 5.8.
Screening CC(C)C(NS(=O)(=O)c1cccc(C(F)(F)F)c1)C(=O)NCc1cccs1 (stereo unspecified) returned ALR H2O2 inh -7, Ecoli growth 0.69, UCH37 inh 0.0, HNF4A DNA FP 0.7, FGF22 binding inactive, B2AR ag 8 and LANA-H2A inh -0.2.
Screening CC[C@@H]1[C@H]2CCCC(=O)N3CC[C@@H](C[C@@H]1OC(=O)NCc1ccccc1)[C@@H]23 returned ALR H2O2 inh -10, UCH37 inh -1.9, HNF4A DNA FP 0.1, FGF22 binding inactive, B2AR ag -4 and LANA-H2A inh 3.8.
For COc1ccc(C2CC(c3cccs3)=NN2C(=O)CN2CCCCC2)cc1 (stereo unspecified) the results were ALR H2O2 inh -2, Ecoli growth 0.69, UCH37 inh -4.6, HNF4A DNA FP -0.5, FGF22 binding inactive, B2AR ag 4 and LANA-H2A inh -0.8.
`Cc1ccc(NS(=O)(=O)c2cc(Br)cnc2N)c(Cl)c1` gave ALR H2O2 inh 2, Ecoli growth 0.69, UCH37 inh 4.5, HNF4A DNA FP 1.1, FGF22 binding inactive, B2AR ag -2 and LANA-H2A inh -8.3.

As a short view, part of the list above.
Screening c1ccc(CCn2c(SCc3ccccc3)nnc2-c2ccncc2)cc1 returned ALR H2O2 inh -8, Ecoli growth 0.71, UCH37 inh -0.7, HNF4A DNA FP -3.2, B2AR ag 8 and LANA-H2A inh 5.8.
Screening CC(C)C(NS(=O)(=O)c1cccc(C(F)(F)F)c1)C(=O)NCc1cccs1 (stereo unspecified) returned ALR H2O2 inh -7, Ecoli growth 0.69, UCH37 inh 0.0, HNF4A DNA FP 0.7, FGF22 binding inactive, B2AR ag 8 and LANA-H2A inh -0.2.
